Source: PubChem BioAssay
HIV TAR-Tat: HIV-1 TAR-Tat binding disruption. AID 1259389. z-score (concentration not given with the values). hit rate 0.6% among 100,000. HIV-1 TAR RNA, Tat peptide displacement FRET; stronger effect = higher value;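 also: score is relative to mean and SD of negative controls; some compounds called inactive have numbers as strong as hits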
CDC25B CDK2 inh: human CDC25B-CDK2/CyclinA binding inhibition. P30305+P24941. HTRF CDC25B-CDK2/CyclinA binding, anti-His/anti-Flag; stronger effect = higher value. z-score (concentration not given with the values). hit rate 0.72% among 94,000. AID 1259370;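 also: score is relative to mean and SD of negative controls; strong numbers were not always called active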
* = called active by the depositor.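 The calls were made as follows: active = z-score from 3 up in half or more of its runs; inactive = the rest.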

For CCOc1cc(C2C(C#N)=C(N)Oc3n[nH]c(C)c32)ccc1OCc1ccccc1Cl (configuration not stated) the results were HIV TAR-Tat 1.85 and CDC25B CDK2 inh -1.97.
Screening CCCCCNS(=O)(=O)c1ccc(N2CCCCS2(=O)=O)cc1 returned HIV TAR-Tat -0.61.
Cc1ccc(NS(=O)(=O)c2cn(C)c(C)n2)cc1F was read as HIV TAR-Tat 1.66.
CC1CN(C(=O)CSc2cn(CC(=O)N(C(C)C)C(C)C)c3ccccc23)CC(C)O1 (configuration not stated) was read as HIV TAR-Tat 0.03.
For O=C(Nc1nccs1)C1CCN(C(=O)c2ccc(-c3noc(C4CC4)n3)cc2)CC1 the results were HIV TAR-Tat 0.78.
Screening COC(=O)c1c(NC(=O)c2nc3ncccn3n2)sc2c1CCCC2 returned HIV TAR-Tat 0.83 and CDC25B CDK2 inh -2.49.
For O=S(=O)(NCCc1csc(-c2cccc(F)c2)n1)c1ccc(Cl)cc1 the results were HIV TAR-Tat 0.58.
`Cc1ccc(S(=O)(=O)c2nc(S(C)(=O)=O)sc2NCCC(C)C)cc1` gave HIV TAR-Tat -1.46 and CDC25B CDK2 inh -1.14.
For CCCNc1nc(C)nc2oc(C)c(C(=O)OCC)c12 the results were HIV TAR-Tat -0.84.
Screening C=CCOC(=O)C1=C(C)NC2=C(C(=O)CCC2)C1c1cccc(F)c1 (configuration not stated) returned HIV TAR-Tat 2.78 and CDC25B CDK2 inh -2.2.
For CCOc1ccc(NS(=O)(=O)c2cc3c(cc2C)N(C)CCO3)cc1 the results were HIV TAR-Tat 1.
For O=C(Cc1noc2ccccc12)Nc1nc2ccccc2s1 the results were HIV TAR-Tat 0.64 and CDC25B CDK2 inh 2.23.
Screening CC1CCN(c2nc(N)c([N+](=O)[O-])c(N3CCC(C)CC3)n2)CC1 returned HIV TAR-Tat 0.94.
For COc1ccc(-c2cc(C(=O)OCC(=O)c3ccc(OC)c([N+](=O)[O-])c3)c3cccc(C)c3n2)cc1 the results were CDC25B CDK2 inh -2.32.
For COc1ccc(-n2nnc(-c3nc(-c4cccs4)no3)c2N)cc1 the results were HIV TAR-Tat 0.93.
For CCOc1ccc(-n2nnc(C(N)=O)c2N)cc1 the results were HIV TAR-Tat 1.19 and CDC25B CDK2 inh -0.79.
`COC(=O)c1cc2c(c(CSc3nnc4cc(C)c5ccccc5n34)c1)OCOC2` gave HIV TAR-Tat -0.81 and CDC25B CDK2 inh -0.82.
O=C1CCCc2c1cc(C(=O)O)c(=O)n2-c1ccccc1 was read as HIV TAR-Tat 1.24 and CDC25B CDK2 inh 2.55.
Screening CC(C)COC(=O)N1CC(=O)Nc2ccccc21 returned HIV TAR-Tat 1.13 and CDC25B CDK2 inh -0.7.
Screening O=C(Nc1nc(-c2ccccc2)cs1)c1c(-c2ccc(Cl)cc2)nc2n1CCS2(=O)=O returned HIV TAR-Tat -0.81 and CDC25B CDK2 inh -2.15.
`CCOC(=O)c1ccccc1N1C(=O)C2C3c4ccccc4C(C(C)=O)(c4ccccc43)C2C1=O` (configuration not stated) gave CDC25B CDK2 inh -1.98.
For CCn1c2ccccc2c2nc3cc4ccccc4cc3nc21 the results were HIV TAR-Tat -2.41 and CDC25B CDK2 inh -0.33.
`O=C(NC1CCCCC1)C1CCCN(c2ncnc3c2nc2n3CCCCC2)C1` (configuration not stated) gave HIV TAR-Tat 0.98 and CDC25B CDK2 inh -0.71.
For Cc1ccc(C(=O)Nc2ccccc2N2CCCCC2)cc1 the results were CDC25B CDK2 inh -0.42.
For O=C(c1cnn(-c2ccccc2Cl)c1C1CCNCC1)N1CCN(c2ccc(Cl)cc2)CC1 the results were HIV TAR-Tat 1.15.
For CCN(CC)C(=O)CSc1cn(CC(=O)N2CCCC2)c2ccccc12 the results were HIV TAR-Tat -1.1.
Screening Cc1csc(=S)n1-c1ccccc1 returned HIV TAR-Tat 0.67 and CDC25B CDK2 inh -1.37.
For CSc1ccc(C2=NN(C(C)=O)C(c3ccc(C)nc3)O2)cc1 (configuration not stated) the results were HIV TAR-Tat 0.9.
For C=CCN(CC=C)Cc1c(C)[nH]c2c(C)cccc2c1=O the results were HIV TAR-Tat 0.58 and CDC25B CDK2 inh -3.81.
O=C1CC(c2cccc(Br)c2)c2cc3c(cc2N1)OCCO3 (configuration not stated) was read as HIV TAR-Tat 0.97 and CDC25B CDK2 inh 1.19.

Random excerpt: 2 entries already listed.
Screening CC(C)COC(=O)N1CC(=O)Nc2ccccc21 returned HIV TAR-Tat 1.13 and CDC25B CDK2 inh -0.7.
For C=CCN(CC=C)Cc1c(C)[nH]c2c(C)cccc2c1=O the results were HIV TAR-Tat 0.58 and CDC25B CDK2 inh -3.81.

As a short view, three of the compounds above.
`CCOC(=O)c1ccccc1N1C(=O)C2C3c4ccccc4C(C(C)=O)(c4ccccc43)C2C1=O` (configuration not stated) gave CDC25B CDK2 inh -1.98.
For CCn1c2ccccc2c2nc3cc4ccccc4cc3nc21 the results were HIV TAR-Tat -2.41 and CDC25B CDK2 inh -0.33.
`O=C(NC1CCCCC1)C1CCCN(c2ncnc3c2nc2n3CCCCC2)C1` (configuration not stated) gave HIV TAR-Tat 0.98 and CDC25B CDK2 inh -0.71.

(listing goes on)
For COC(=O)c1cc2oc(C)cc2n1Cc1cc(C)ccc1C the results were HIV TAR-Tat 0.69 and CDC25B CDK2 inh -1.14.
`Fc1ccc(Cn2nnc(-c3ccccc3Cl)n2)cc1` gave HIV TAR-Tat 1.3 and CDC25B CDK2 inh 0.3.
Screening Cc1cc(O)ccc1Nc1nc(-c2cccnc2)cs1 returned HIV TAR-Tat 2.22 and CDC25B CDK2 inh -2.13.
`O=C(NCCC1=CCCCC1)C1CCN(c2nnc(-n3cccc3)s2)CC1` gave HIV TAR-Tat 0.49 and CDC25B CDK2 inh -0.36.
Cc1[nH]c(C)c(S(=O)(=O)Nc2ccc(F)cc2Cl)c1C(=O)N1CCCC1 was read as HIV TAR-Tat -0.13.
CC1CCCN(S(=O)(=O)c2ccc3c(c2)CCCC(=O)N3)C1 (configuration not stated) was read as HIV TAR-Tat 1.82.
`O=C(NNC(=S)NCc1ccco1)C(F)(F)F` gave CDC25B CDK2 inh -1.11.
Clc1ccc(C2=Nn3c(nnc3-c3ccccc3)SC2)cc1 was read as CDC25B CDK2 inh -2.42.
`O=C(O)C1C(c2ccccc2)C(C(=O)O)C1c1ccccc1` (configuration not stated) gave HIV TAR-Tat 1.77 and CDC25B CDK2 inh -1.13.
Screening O=c1c2sccc2nc(SCc2cc(=O)n3cc(Cl)ccc3n2)n1-c1ccc(F)cc1 returned CDC25B CDK2 inh -2.29.
For O=C(CSc1ccccc1)Nc1nc(-c2ccccn2)cs1 the results were HIV TAR-Tat 1.18.
CCCCn1c(O)c(C2=Nc3ccccc3SC(c3cccs3)C2)c(=O)[nH]c1=O (configuration not stated) was read as HIV TAR-Tat 0.34 and CDC25B CDK2 inh -0.28.
`CCCN1CCN(c2ncc3c(n2)CCN(Cc2ccc(C)cc2)C3)CC1` gave HIV TAR-Tat 0.97.
For COCCCNC(=O)C1CCCN(c2ncnc3c2nc2n3CCCCC2)C1 (configuration not stated) the results were HIV TAR-Tat 0.44.
For O=c1c(NCc2ccc(F)cc2)c(-c2ccc(Cl)cc2)c1=O the results were HIV TAR-Tat 0.23.
For CC(=NCc1ccc2c(c1)OCO2)c1ccccc1O the results were CDC25B CDK2 inh -0.51.
For O=C(Nc1nccs1)c1ccc2c(c1)CC(c1ccccc1)OC2=O (configuration not stated) the results were HIV TAR-Tat -0.56 and CDC25B CDK2 inh -0.43.
Screening CCCS(=O)(=O)N1CCCc2ccc(NS(=O)(=O)c3cccs3)cc21 returned HIV TAR-Tat 1.4.
Screening CC(=O)/C=C(/NCCN/C(=C/C(C)=O)c1ccccc1)c1ccccc1 returned CDC25B CDK2 inh -0.69.
Screening Cc1cc(-c2ccc(S(=O)(=O)N3CCC(Cc4ccccc4)CC3)s2)on1 returned HIV TAR-Tat 0.7.
For CC1=CC(C)(C)Nc2ccc(OCC(=O)c3ccccc3)cc21 the results were HIV TAR-Tat -6.5 and CDC25B CDK2 inh -2.41.
NS(=O)(=O)c1ccc(NC(=O)Nc2cc(Cl)cc(Cl)c2)cc1 was read as CDC25B CDK2 inh -1.54.
Cc1ccsc1CCNC(=O)CCc1nnc2ccc(N3CCOCC3)nn12 was read as HIV TAR-Tat 0.14.
Screening Clc1ccc(-c2cn3nc(-c4ccccc4)sc3n2)cc1 returned HIV TAR-Tat 2.19 and CDC25B CDK2 inh -1.28.
Screening Cc1cc(-c2ccc(C)c(S(=O)(=O)NCc3ccccc3)c2)on1 returned HIV TAR-Tat 0.74.
Screening N#C/C(=C\c1cccnc1)c1ccccn1 returned CDC25B CDK2 inh -1.37.
For Oc1ccc(C(O)(C2CCCCC2)C(CN2CCOCC2)c2ccccc2)cc1 (configuration not stated) the results were HIV TAR-Tat 0.61 and CDC25B CDK2 inh -0.13.
Cc1ccc2nc(SCc3ccccc3)[nH]c2c1 was read as HIV TAR-Tat 0.7 and CDC25B CDK2 inh -2.01.
For Cc1ccc(CSc2ncc(C#N)c(N)n2)cc1 the results were HIV TAR-Tat 1.41.
Screening Cc1ccccc1CN[C@H]1CS(=O)(=O)C[C@@H]1S(=O)(=O)c1cccs1 returned HIV TAR-Tat -1.01 and CDC25B CDK2 inh -1.2.
CCOC(=O)c1cc2cc3cc(C)ccc3nc2s1 was read as HIV TAR-Tat 1.2 and CDC25B CDK2 inh -0.02.
`Nc1ccc2nc(-c3ccccc3)[nH]c2c1` gave HIV TAR-Tat 2.06 and CDC25B CDK2 inh -0.35.
CCOC(=O)C(C)Sc1nnc(CSc2ncccn2)n1-c1ccc(OC)cc1 (configuration not stated) was read as HIV TAR-Tat -2.12 and CDC25B CDK2 inh 0.27.
CCCN(CCC)CCNC(=O)C1CCN(c2ncnc3onc(C)c23)CC1 was read as HIV TAR-Tat -0.27.
`COc1cc(C2C(C#N)=C(C)NC3=C2C(=O)CCC3)cc(Cl)c1O` (configuration not stated) gave HIV TAR-Tat 0.05 and CDC25B CDK2 inh -0.99.
`CN1C(C(=O)NCCc2ccccc2)=CC(c2ccc3c(c2)OCO3)=NS1(=O)=O` gave HIV TAR-Tat 0.04 and CDC25B CDK2 inh -2.33.
`COC(=O)c1cc2cc(Br)ccc2c(Br)c1OC` gave CDC25B CDK2 inh -1.66.
For O=S(=O)(c1cccs1)N1CCOCC1 the results were HIV TAR-Tat 2.78 and CDC25B CDK2 inh -0.89.
`CC(=O)Oc1ccc(C2OC(=O)C3(CCCCC3)C(=O)C2(C)C)cc1` (configuration not stated) gave HIV TAR-Tat 0.04 and CDC25B CDK2 inh -0.37.
COc1ccc(OC)c(-n2nnc(-c3nc(-c4ccncc4)no3)c2N)c1 was read as HIV TAR-Tat -1.03.
For CC(=O)Oc1ccc2oc(=O)sc2c1 the results were HIV TAR-Tat 2.64 and CDC25B CDK2 inh -2.29.
For COc1ccccc1-c1cc(N)n(S(=O)(=O)c2cccc3nsnc23)n1 the results were HIV TAR-Tat -0.23 and CDC25B CDK2 inh -1.36.
For CNC(=O)C1CCN(S(=O)(=O)c2c(C)noc2C)CC1 the results were HIV TAR-Tat 2.47.
For Cc1csc(NC(=O)CN2C(=O)C(C)(C)c3cc(S(=O)(=O)N4CCCCC4)ccc32)n1 the results were HIV TAR-Tat -0.5.
`CCC1=Nc2cc(C(=O)NCc3ccco3)ccc2Sc2ccc(Br)cc21` gave HIV TAR-Tat -0.06 and CDC25B CDK2 inh -1.68.

Gathered by group, those above with a COOH group
O=C1CCCc2c1cc(C(=O)O)c(=O)n2-c1ccccc1 was read as HIV TAR-Tat 1.24 and CDC25B CDK2 inh 2.55.
`O=C(O)C1C(c2ccccc2)C(C(=O)O)C1c1ccccc1` (configuration not stated) gave HIV TAR-Tat 1.77 and CDC25B CDK2 inh -1.13.

(listing goes on)
Cc1cccc2nc(Cn3c(=O)n(CCc4ccccc4)c(=O)c4ccccc43)cc(=O)n12 was read as HIV TAR-Tat 1.43 and CDC25B CDK2 inh -5.52.
CCC1(C)Cc2ccccc2C(NC(=O)Nc2cccc(OC)c2)=C1C#N (configuration not stated) was read as HIV TAR-Tat 0.42 and CDC25B CDK2 inh -2.23.
`CCOC(=O)c1cnc(C(F)(F)F)nc1NNC(=O)c1ccno1` gave CDC25B CDK2 inh -0.39.
CCc1ccc(S(=O)(=O)Nc2cccc(N3CCCS3(=O)=O)c2)cc1 was read as HIV TAR-Tat -0.52.
Screening Cc1cc(C)c2nc3s/c(=C\c4ccc(-c5ccc(Cl)c(C(=O)O)c5)o4)c(=O)n3c2c1 returned CDC25B CDK2 inh 0.05.
Screening CN(NC(=O)c1ccncc1Cl)c1cnc2ccccc2n1 returned CDC25B CDK2 inh -1.31.
Screening O=C(COc1ccccc1OC(=O)c1ccc(Cl)cc1)NCc1ccccc1Cl returned CDC25B CDK2 inh -1.05.
Screening CC(NC(=O)Cn1ncc2ccsc2c1=O)C12CC3CC(CC(C3)C1)C2 (configuration not stated) returned CDC25B CDK2 inh 0.7.
`COc1ccc(-c2nc3nc(C)cc(NC(C)C)n3n2)cc1` gave HIV TAR-Tat 2.25 and CDC25B CDK2 inh -1.18.
`CC1CCc2c(cnc3c(C(=O)NC4CCCCC4C)cnn23)C1` (configuration not stated) gave HIV TAR-Tat 1.12.
Cc1c(-c2nc(-c3ccc(Cl)cc3)no2)nnn1-c1cc(F)ccc1F was read as HIV TAR-Tat -0.2.
Screening O=C1CC(c2cccc(O)c2)C2=C(CC(c3cccs3)CC2=O)N1 (configuration not stated) returned HIV TAR-Tat 0.96 and CDC25B CDK2 inh -0.47.
`O=C(Nc1ccccc1Cl)N1CCC(CN2CCCC2)CC1` gave HIV TAR-Tat 0.68.
Screening Cc1nc(N2CCCCC2)cc(N2CCN(C(=O)Nc3ccc4c(c3)OCCO4)CC2)n1 returned HIV TAR-Tat 1.53 and CDC25B CDK2 inh -0.95.
`CCOCCOC(=O)COc1ccc2c(=O)c(-c3ccc(Cl)cc3)c(C(F)(F)F)oc2c1` gave HIV TAR-Tat 0.51 and CDC25B CDK2 inh 0.06.
`Cc1cc(NC(=O)NCc2c(C)nn(-c3ccccc3)c2-n2cccc2)ccc1Br` gave HIV TAR-Tat -1.4.
